eIF4H FP inh – inhibitors of RNA binding by human eIF4H; Q15056; eIF4H fluorescence polarization binding assay; inhibition, % at 35 µM; hit rate 0.94% among 290,000; AID 2012;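 active means 50% or more with normal probe brightness, or confirmed in later tests; about a fifth of its hits are not listed in these tables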;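 further: calls also rest on retests at 20 µM and on dose response follow-up; 0% = protein and probe with vehicle and 100% = probe without protein; strong numbers were not always called active; many hits fall short of the cut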
MT1-MMP act inh – inhibitors of human MT1-MMP activation; P50281; HT1080 RFP-PRO-GFP cells, GFP/RFP ratio fluorescence, overnight; percent of plate control window, DMSO zero; GFP/RFP ratio change, % at 20 µM; hit rate 0.061% among 360,000;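 active means GFP/RFP ratio change of at least 30% with cell ATP level not reduced by more than half and red fluorescence within 50% of control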; further: strong numbers were not always called active
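system = RFP-PRO-GFP reporter HT1080 cells | dosing = 20 µM single dose, 1% DMSO | timing = overnight cell settling, then overnight compound exposure, 37 °C, 5% CO2 | read-out basis = GFP/RFP fluorescence ratio | controls = DMSO and RFP-L50D-GFP cell wells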
Rce1 inhib – blocks yeast Ras-converting enzyme; Q03530; yeast membranes, quenched prenylated peptide cleavage fluorescence; calls only; hit rate 0.27% among 290,000; AID 2563;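 active means fall in fluorescence gain of 50% or more versus controls, with final raw signal at or below 3038400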;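 further: plate controls were neutral control wells for no effect and wells lacking membranes for full effect; tested at 10 µM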
Target sequence (Q03530 whole entry, looked up): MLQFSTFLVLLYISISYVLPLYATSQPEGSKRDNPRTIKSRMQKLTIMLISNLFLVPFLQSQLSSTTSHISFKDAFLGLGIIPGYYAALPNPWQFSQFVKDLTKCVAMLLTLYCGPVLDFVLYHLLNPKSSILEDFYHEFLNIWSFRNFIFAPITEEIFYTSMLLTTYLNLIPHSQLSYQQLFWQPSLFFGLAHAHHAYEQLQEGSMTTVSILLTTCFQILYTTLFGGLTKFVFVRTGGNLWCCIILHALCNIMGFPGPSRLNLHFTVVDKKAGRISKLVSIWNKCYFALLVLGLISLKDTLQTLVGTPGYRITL
PABP FP inh – blocks human PABP binding to poly(A) RNA; P11940; fluorescence polarization; inhibition, % at 35 µM; hit rate 1% among 290,000; AID 2014;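 active means 50% or more with normal probe brightness, or confirmed in later tests; about a fifth of its hits are not listed in these tables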;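 further: calls also rest on retests at 20 µM and on dose response follow-up; controls were probe without protein and protein plus probe with vehicle; some compounds called inactive have numbers as strong as hits; many hits fall short of the cut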
Yeast UUG start – yeast start codon fidelity modulation; S. cerevisiae UUG-firefly luciferase reporter, luminescence/redox ratio; activity score, % at 18.7 µM; hit rate 0.13% among 350,000; AID 602363;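 active means replicate mean at a twofold rise or more, about +100% in these data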;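 further: firefly luciferase made from a UUG start codon reports start codon fidelity; reporter light over untreated wells divided by growth signal over untreated wells; some hits fall short of that in this replicate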
CSC inhib – blocks cancer stem cells; cancer stem cell-like cells viability, luminescence; hit rate 1.1% among 300,000; inhibition, % at 7.5 µM;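 active means mean at 75% or more and at least half the replicates too; tested in HMLE shEcad cells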;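 further: 0% = median of negative and 100% = median of positive control wells; the first replicate is given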
Env fusion inh – HIV envelope-mediated fusion inhibition | AID 651610 | hit rate 1.1% among 360,000 | HeLa-JRFL Env/CEM21 cell fusion, luciferase | inhibition, % at 12.3 µM;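 active means mean replicate inhibition score of at least 50 and every replicate individually at or above 50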;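 further: 0% = plate neutral controls and 100% = maraviroc near 300 nM; one replicate is shown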
eIF4H FP inh retest – further read-out of eIF4H FP inh, marked with its call; inhibition, %; compound at 20 µM; confirmation average;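 mean of two retest wells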
PABP FP inh retest – recorded beside PABP FP inh, whose call it bears; inhibition, %; compound at 20 µM; confirmation repeats;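 mean of two retest wells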
MT1-MMP act inh RFP – recorded beside MT1-MMP act inh, whose call it bears; RFP signal change, %; measured here: RFP expression control read;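 0 = vehicle wells; hits needed this value within 50% of zero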
* = called active by the depositor; i = inactive; x = not tested or not shown; & = joins results of further samples; [ ] = dose if it differs, or a comment. Not all compounds are listed. The share of hits here may be higher or lower than overall.

SMILES | eIF4H FP inh | MT1-MMP act inh | MT1-MMP act inh RFP | Rce1 inhib | PABP FP inh | Yeast UUG start | CSC inhib | Env fusion inh | others
CCc1nn(CCCC(=O)Nc2ccc(C)c(C)c2)c(=O)c2cc3occc3n12 | -3 | -1 | 0 | i | 2 | 7 | -13 | 48
CSc1cccc(CN2CCN(Cc3ccc(F)c(F)c3)C(CCO)C2)c1 (configuration not stated) | -10 | 4 | 4 | i | -2 | x | -1 | -15
CCOc1ccc(OCc2cccc(C(=O)N3CCOCC3)c2)cc1 | -7 | 1 | -2 | i | -1 | -55 | -2 | 84*
CCC1CCCCN1S(=O)(=O)c1ccc(C(=O)Nc2nnc(-c3cccs3)o2)cc1 (configuration not stated) | 22 | 3 | -8 | x | 5 | -35 | -7 | x
O=C(Oc1ccc2ccc(O)cc2c1)C1CCCCC1 | 14 | -9 | 1 | i | 0 | x | -6 | -4
Cc1cccc(N2CCN(C(=O)C3COc4ccccc4O3)CC2)c1C (configuration not stated) | -3 | 0 | -8 | i | -12 | x | -1 | -14
C[C@@H]1CN([C@@H](C)CO)C(=O)c2cc(/C=C/c3ccccc3)cnc2O[C@@H]1CN(C)S(=O)(=O)c1ccc(F)cc1 | x | 0 | 2 | x | x | -17&1 | x | -21[16.7 µM]
COC(=O)C1=C(C)N(c2ccc(S(N)(=O)=O)cc2)C(=O)C1 | 1 | -1 | 1 | i | -1 | -7 | -7 | x
CN1C2CCC1CC(NC(=O)c1cc(S(=O)(=O)N(C)C)c(Cl)cc1Cl)C2 (configuration not stated) | x | -1 | 3 | x | x | -7 | -9 | x
O=C(COC(=O)c1ccc(F)c(S(=O)(=O)N2CCCCC2)c1)NCc1ccc(F)cc1 | -5 | -2 | -3 | i | 4 | 11 | -9 | 2
COc1ccc(-c2nnn(Cc3ccccc3F)n2)cc1 | -5 | 6 | 1 | i | 3 | x | 10 | x
CC(=O)NC(CC(=O)NNC(=O)COc1c(C)cccc1C)c1ccccc1 (configuration not stated) | x | 2 | 3 | x | x | x | -11 | -21
Cc1ccnc(N2CCCC(C(=O)NCc3cccs3)C2)n1 (configuration not stated) | -3 | 0 | -7 | i | -11 | -12 | -1 | -36
COC(=O)Nc1[nH]ncc1[N+](=O)[O-] | 7 | 4 | 4 | i | -2 | x | -4 | -5
COc1cccc(NC(=O)NCc2ccc(F)cc2)c1 | -5 | -4 | 1 | i | 0 | x | -7 | -2
CCN(CC)S(=O)(=O)c1ccc(C(=O)N2CCN(CCN3C(=O)c4cccc5cccc(c45)C3=O)CC2)cc1 | -13 | x | x | x | 5 | x | -15 | x
COC(=O)C(NS(=O)(=O)c1ccc(F)cc1)c1ccccc1 (configuration not stated) | -8 | 1 | -4 | i | 1 | x | -9 | 18
COc1ccc(S(=O)(=O)N2CCC(C(=O)NCCc3ccccc3)CC2)cc1OC | 0 | 3 | -1 | i | -1 | -4 | 1 | 33
O=S(=O)(Cc1ccccc1Cl)N1CCCC1 | 5 | 4 | -2 | i | -2 | x | -5 | 7
O=C(/C=C/c1ccccc1)c1cc(Br)ccc(=O)c1O | 83* | -5 | -5 | i | 44* | 4 | 93* | x | eIF4H FP inh retest=99*;PABP FP inh retest=80*
Cc1cccc(N2CCN(Cc3nc(-c4ccc(F)cc4F)oc3C)CC2)n1 | 7 | 1 | -4 | i | 9 | -6 | -6 | 13
Cn1c2c(c(=O)n(C)c1=O)C(c1ccccc1F)C(C#N)=C(N)O2 (configuration not stated) | -13 | 6 | 10 | i | 3 | x | 3 | 1
O=C1CCN(C(=O)c2cccs2)c2ccccc21 | 2 | -2 | 2 | i | 12 | x | -28 | -6
O=C(c1ccc([N+](=O)[O-])s1)N1CCCc2ccccc21 | 3 | 0 | -9 | i | -1 | -35 | -1 | -13
C[C@H](CO)N1C[C@H](C)[C@@H](CN(C)C(=O)Nc2ccc(C(F)(F)F)cc2)Oc2ccc(NC(=O)C3CC3)cc2C1=O | x | 4 | 7 | x | x | 7&-1 | x | -77
(next part)
SMILES | eIF4H FP inh | MT1-MMP act inh | MT1-MMP act inh RFP | Rce1 inhib | PABP FP inh | Yeast UUG start | CSC inhib | Env fusion inh | others
COc1ccc(CC(=O)Nc2ccc(S(=O)(=O)Nc3ncccn3)cc2)cc1 | -10 | 2 | 4 | i | -4 | 42 | -10 | x
O=C(Nc1nc2ccccc2[nH]1)C1CCN(C(=O)c2ccc(F)cc2)CC1 | x | -4 | -2 | i | x | -12 | 0 | -1
Cc1cc(C)cc(NC(=S)N2CCN(c3ncccn3)CC2)c1 | 10 | 4 | 2 | i | 11 | -13 | x | 7
O=C(CN1CCCc2ccccc21)Nc1ccc(F)cc1[N+](=O)[O-] | -6 | 0 | 0 | i | -4 | x | -3 | 11
CCn1nnnc1SCC(=O)Nc1ccc2c(c1)OCCO2 | 0 | 1 | 5 | i | 2 | -6 | 5 | -42
Cc1ccccc1NC(=O)CCS(=O)(=O)c1cccc2nonc12 | 5 | 3 | 4 | i | 2 | -20 | x | -7
O=C(OCCN1C(=O)c2ccccc2C1=O)c1cnccn1 | -3 | -2 | 3 | i | -3 | x | -6 | -56
Cc1sc2nc(SCC(=O)OC(C)C)n(C)c(=O)c2c1C | -1 | 2 | 2 | i | 7 | -12 | x | -4
O=C1C=C(c2ccc3c(c2)OCO3)CCC1 | x | 3 | 1 | i | x | 7 | -7 | -10
COC(=O)c1ccc(NC(=O)CSc2ccc(-c3ccccn3)nn2)cc1 | 12 | 6 | 2 | i | 7 | -35 | 12 | -17
COc1ccc(CN2CCCC(C(=O)N3CCCCC3)C2)c(OC)c1 (configuration not stated) | 7 | -2 | 2 | i | 17 | 1 | 4 | x
CC(=O)C1=CCC(c2cccs2)N(S(=O)(=O)c2ccc(C)cc2)C1 (configuration not stated) | x | 1 | -3 | x | x | 10 | x | 35
CCOC(=O)c1c(NC(=O)Cn2ccsc2=N)sc(C)c1C | 3 | -3 | 3 | i | 10 | x | 3 | 3
CCOC(=O)N1CCN(C(=O)c2ccc(CN(c3ccc(C)c(C)c3)S(C)(=O)=O)cc2)CC1 | -1 | 4 | -4 | i | 4 | 6 | -6 | -17
Cc1cccc(NC(=O)CSc2nnc([C@@H]3CCCN3C(=O)OC(C)(C)C)o2)c1C | 3 | -1 | 1 | i | -5 | -4 | 1 | x
C=Cn1c(C(=O)O)cc(CC)c1-c1ccccc1 | -6 | 1 | 4 | i | 13 | -15 | -6 | -53
CCOC(=O)c1sc2nc(C)n(N)c(=O)c2c1C | 1 | 0 | -2 | i | 14 | x | 3 | -29
COc1cccc(C(O)c2nc(/C=C/c3ccccc3)cs2)c1 (configuration not stated) | x | -2 | -5 | x | x | -13 | x | 7
O=C(COC(=O)Cn1cnc2ccccc2c1=O)NCC12CC3CC(CC(C3)C1)C2 | 6 | 2 | 2 | i | -5 | -5 | 0 | 7
CSc1nc2ccccc2n1CC(=O)N1CCCCC1 | -10 | -2 | 0 | i | 0 | -15 | x | x
Cc1cccc(-c2nnc(SCCC(=O)N3CCOCC3)o2)c1 | -2 | -2 | -3 | i | 0 | x | -9 | x
CC(=O)N(C)c1nnc(-c2cnccn2)s1 | 4 | 1 | 1 | i | -2 | x | -9 | x
COC(=O)CCCN1C(=O)NC(c2ccc(-c3ccccc3)cc2)C(C(=O)OCc2ccccc2)=C1C (configuration not stated) | x | -3 | -9 | x | x | -10 | x | -9
CC(C)c1ccccc1NC(=S)NCCCn1ccnc1 | -5 | -2 | 0 | i | 0 | -9 | -1 | -2
Nc1ccc(C(=O)OCC(=O)NC2CC2)cc1[N+](=O)[O-] | -6 | -8 | -1 | i | 27 | x | -2 | -3
Other results
SMILES | eIF4H FP inh | MT1-MMP act inh | MT1-MMP act inh RFP | Rce1 inhib | PABP FP inh | Yeast UUG start | CSC inhib | Env fusion inh | others
C/C(=N\NC(=O)c1cc(C2CC2)nc2ccccc12)c1ccc(C)s1 | -6 | 2 | -5 | i | 1 | -13 | -5 | -54
COc1cc(Cl)c(S(=O)(=O)NCCN2CCOCC2)cc1Cl | 2 | 5 | 5 | i | -5 | 14 | -14 | x
CC(C)CN1CCC(CNC(=O)CCc2nnc(Cc3c[nH]c4ccccc34)o2)CC1 | 0 | x | x | x | 8 | x | 12 | -11
Cc1ccc(-c2csc3ncnc(SCC(=O)c4ccc5c(c4)OCCO5)c23)cc1 | -8 | -6 | -6 | i | -6 | -10 | -2 | x
CSc1ccccc1C(=O)Nc1cccc(C)c1 | -2 | -3 | -3 | i | -2 | -11 | -3 | -261
CC(=O)Nc1nonc1NC(=O)CSc1nc2ccccc2o1 | -3 | -1 | -8 | i | 8 | -9 | 1 | -8
O=C(Nc1ccc(O)c(C(=O)O)c1)Oc1ccccc1 | -9 | 0 | 0 | i | 0 | x | -5 | 1
CCc1ccc([C@@H]2C[C@H]3[C@@H](CN2S(=O)(=O)c2ccc(C)cc2)C(=O)C[C@@H](c2ccccc2F)N3S(=O)(=O)c2ccc(C)cc2)cc1 | x | -1 | -1 | x | x | -1 | x | -5
Cc1ccc(N=Cc2c(O)cc(C)oc2=O)c(C)c1 | 38 | -39 | 2 | i | -11 | x | 10 | 5
O=C(CSc1nc(=O)n2ccccc2n1)N1CCCc2ccccc21 | x | -3 | -2 | i | x | -5 | x | 0
Cc1ccc(CC(=O)NNC(=O)c2ccncc2)cc1C | x | 2 | 1 | i | x | -24 | -14 | -21
CC(=O)N1CCc2cc(S(=O)(=O)NCCC(=O)NCCc3ccc(Cl)cc3)ccc21 | -10 | -1 | -20 | i | 14 | -13 | -6 | 14
Cc1ccc(-c2nnc(Nc3ccc(OCC(N)=O)cc3)c3ccccc23)cc1S(N)(=O)=O | -6 | -5 | -3 | i | -11 | -13 | -3 | 1
CC(C)NC(=O)CN1CCN(Cc2nc(C(c3ccccc3)c3ccccc3)no2)CC1 | -2 | 2 | -3 | i | 1 | x | -11 | -17
COc1cc(Cl)ccc1NC(=S)N(CCCN1CCOCC1)Cc1cn(C)c2ccccc12 | -12 | 3 | 0 | i | -8 | -7 | 8 | x
COc1ccc(CNC(=O)CCc2c(C)nc3cc(-c4ccccc4OC)nn3c2C)cc1 | -5 | 1 | 1 | i | -6 | 8 | -8 | 17
COc1ccc(C(C#N)CC(=O)c2ccc3c(c2)OCO3)cc1OC (configuration not stated) | x | 2 | 3 | x | x | -3 | x | -19
O=C(c1cc2sccc2n1Cc1ccccc1)N1CCN(c2nc3ccccc3s2)CC1 | -11 | 9 | -22 | i | -16 | -6 | 7 | x
Cc1nc(C(=O)N2CCc3c([nH]c4ccccc34)C2c2cc(F)ccc2F)cs1 (configuration not stated) | 14 | -8 | -3 | i | 7 | -13 | -8 | 12
C=CCNC(=S)NNC(=O)c1ccccc1 | -10 | 0 | -1 | i | -7 | 10 | 7 | -89
CCOC(=O)c1oc2cc(OCC(N)=O)ccc2c(=O)c1-c1ccc(OC)c(OC)c1 | 4 | 4 | 4 | i | 6 | -19 | -3 | -7
O=C(NCCc1ccc(Cl)cc1)C1CCN(S(=O)(=O)N2CCC3(CC2)OCCO3)CC1 | 8 | 3 | -2 | i | 6 | -8 | -12 | x

Bioassay records as filed in PubChem BioAssay.
